Source: PubChem
TRPML1 inh: human mucolipin-1 channel inhibition. Q9GZU1. TRPML1-inducible cells, Ca2+ dye fluorescence, FDSS; stronger effect = lower value; inhibition of EC80 agonist-evoked calcium signal. activity change, negative = inhibition, % (test concentration not listed). hit rate 0.02% among 390,000. AID 624415; in the data active means activity change below about -50%; inconclusive means about -30% to -50%; inactive means above about -30%;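 also: stimulus is agonist 54-4 at its EC80 concentration; % is scaled to controls: 0 for no effect and ±100 for the full control effect; compound concentration not given in the record; the text of the record puts the active cut at -80%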
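TRPML1-DL cells, Tet-induced overnight (~16 h, 37 °C) at 1,500 cells/well, were loaded with Ca8 no-wash dye plus quencher for 45-90 min at room temperature. Compounds were pinned during FDSS kinetic reading; agonist 54-4 at EC80 (4 uM final) then added.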
TRPV1 PAM: human TRPV1 potentiation. potentiation, % at 8.33 µM. hit rate 0.02% among 320,000. TRPV1-expressing cells, Fluo-8 calcium influx, capsaicin EC20 potentiation; host cell line not named in the record; control for the full effect not named in the record. Q8NER1; active means potentiation above 80%; inconclusive means 30% to 80%; inactive means below 30%; also: 0% is about no effect
Target sequence (Q8NER1 whole entry, looked up): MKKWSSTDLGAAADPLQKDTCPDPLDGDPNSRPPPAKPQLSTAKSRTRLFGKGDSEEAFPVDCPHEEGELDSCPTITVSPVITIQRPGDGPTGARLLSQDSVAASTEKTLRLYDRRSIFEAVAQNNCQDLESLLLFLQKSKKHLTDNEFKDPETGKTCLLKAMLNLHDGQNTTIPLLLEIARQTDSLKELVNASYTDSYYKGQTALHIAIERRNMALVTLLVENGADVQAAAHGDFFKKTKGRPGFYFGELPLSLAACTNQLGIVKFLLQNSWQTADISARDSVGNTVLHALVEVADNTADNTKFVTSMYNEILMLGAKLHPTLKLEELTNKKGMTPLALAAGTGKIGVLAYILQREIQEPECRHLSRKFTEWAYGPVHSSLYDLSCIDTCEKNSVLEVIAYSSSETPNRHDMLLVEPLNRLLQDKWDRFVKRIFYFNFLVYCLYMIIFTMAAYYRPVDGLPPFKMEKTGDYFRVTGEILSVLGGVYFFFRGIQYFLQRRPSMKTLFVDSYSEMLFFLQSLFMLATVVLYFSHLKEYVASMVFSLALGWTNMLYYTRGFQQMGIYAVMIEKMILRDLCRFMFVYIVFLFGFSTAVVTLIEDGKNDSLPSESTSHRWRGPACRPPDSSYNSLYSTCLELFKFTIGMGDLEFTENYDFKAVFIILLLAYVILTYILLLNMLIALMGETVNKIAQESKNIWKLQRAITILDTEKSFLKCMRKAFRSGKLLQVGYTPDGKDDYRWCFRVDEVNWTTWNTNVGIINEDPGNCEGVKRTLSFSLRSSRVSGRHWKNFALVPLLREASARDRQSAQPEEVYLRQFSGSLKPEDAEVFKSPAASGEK
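Fluo-8 calcium influx in TRPV1-expressing cells, kinetic read (ex 480/em 520 nm). Compound added and read 3 min for agonist activity, followed by capsaicin at EC20 final and 2 min further read for enhancement.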
Sfp PPTase inh: blocks B. subtilis Sfp PPTase activity; hit rate 3.5% among 310,000; Q9F4F7; AID 1490; Potency, µM, for the others: max response, negative = inhibition, most hits filed as inhibitors; Biochemical Sfp PPTase activity, qHTS; active = well fitted inhibition curve with a large enough effect; inconclusive = small, poorly fitted or top-dose-only effect, or another doubt; inactive = no such curve, though single readings can be large or run the other way;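 also: the enzyme is Sfp with the accession as filed and its product quenches rhodamine fluorescence; potency is read from the fitted curve at half-maximal effect; 0% = enzyme reaction without inhibitor and -100% = no enzyme wells; top concentration of the series not given in the record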
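Buffer: 50 mM Hepes-Na pH 7.6, 10 mM MgCl2, 0.01% Nonidet P-40, 0.01% BSA. Enzyme 15 nM, pre-exposed to compound 15 min; substrates then added and fluorescence change tracked over 30 min.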
gsp antag: antagonizes gsp, the McCune-Albright syndrome mutation; gsp-mutant cells, cAMP HTRF, 30 min; control for the full effect not named in the record; AID 624288; hit rate 0.4% among 340,000; Potency, µM (highest dose often 76.9 µM), without a hit: at the top dose activity change, negative = inhibition, most hits filed as inhibitors; active = falling curve of any shape with a large fitted effect; inconclusive = falling curve, mostly with a smaller effect; inactive = flat or rising curve; cell line not stated here;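 also: intracellular cAMP measured with PDE inhibitor Ro 20-1724 present during compound exposure; potency is read from the fitted curve at half-maximal effect; % is scaled to controls: 0 for no effect and ±100 for the full control effect; nearly all actives have a fitted effect of over 65% in size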
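HTRF cAMP measurement after 30 min RT detection following 30 min, 37C compound treatment alongside […] (added as 300 uM solution) in G418-selected cells seeded at 2000/well and grown 16–24 h.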
Menin MLL FP FL: displaces fluorescein MLL peptide from human menin; 290,000 tested, under 10 active; FP activity change, % at 61.4 µM; Fluorescence polarization, fluorescein-MLL peptide displacement from menin; inconclusive = falling polarisation curve, or a change in total fluorescence; inactive = total fluorescence flat and polarisation flat or rising; no compound was filed as active; the % refers to the polarisation; negative = inhibition;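 also: % of control where 0% means no effect; inhibitors lower the polarisation; unlabelled MLL peptide was the positive control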
gsp ag: activates gsp, the McCune-Albright syndrome mutation; hit rate 0.13% among 340,000; gsp mutant cells, cAMP HTRF, 30 min; control for the full effect not named in the record; Potency, µM (titrated, usually from 76.9 µM), for inactives: top-dose activation (cAMP increase), usual class: activators; active = well fitted activation curve with a large enough effect; inconclusive = small, poorly fitted or top-dose-only effect, or another doubt; inactive = no such curve, though single readings can be large or run the other way; cell line not stated here;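 also: phosphodiesterase inhibitor Ro 20-1724 added with compounds to block cAMP breakdown; potency is read from the fitted curve at half-maximal effect; nearly all actives have a fitted effect of over 60% in size; about a fifth of the inactives were tested at one dose only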
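Cells stably selected in G418 were plated at 2000/well, grown 16-24 hr, then given compounds in DMSO with the PDE inhibitor […] (300 uM solution added) for 30 min at 37C; cAMP was read by HTRF.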
ClpP mod: qHTS Assay for Activators of ClpP. Potency, µM (titrated, usually from 57.5 µM), for the others: at the top dose activity change, negative = active. purified B. subtilis ClpP, FRET peptide cleavage, 20 min. ATP-dependent Clp protease proteolytic subunit (Bacillus subtilis (strain 168)), P80244. hit rate 1.9% among 340,000; active = well fitted falling curve with a large enough effect; inconclusive = small, poorly fitted or top-dose-only effect; inactive = no such curve, though single readings can be large or run the other way; also: potency is read from the fitted curve at half-maximal effect; the source files actives as falling curves though it sought activators and does not explain the sign; nearly all actives have a fitted effect of over 65% in size; many hits overshoot -100%
Target sequence (P80244 whole entry, looked up): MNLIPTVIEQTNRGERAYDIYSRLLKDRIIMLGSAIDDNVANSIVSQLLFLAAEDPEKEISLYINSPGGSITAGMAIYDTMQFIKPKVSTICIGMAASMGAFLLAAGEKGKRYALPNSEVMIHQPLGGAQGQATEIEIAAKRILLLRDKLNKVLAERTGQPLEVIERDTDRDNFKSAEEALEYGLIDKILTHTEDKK
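ClpP 10 microg/mL final, pH 8 Tris/KCl buffer with BSA, glycerol, Tween-20; compound pinned in; FRET-FV substrate; RT 20 min; Ex320/Em430; ΔFRET vs ADEP 5.8 microM, DMSO, no enzyme.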
* marks the source's active call; other numbers are inactive results; ? = inconclusive; . = not tested or not shown; & = joins results of further samples; [ ] = another dose, or the depositor's remark.

SMILES	TRPML1 inh	TRPV1 PAM	Sfp PPTase inh	gsp antag	Menin MLL FP FL	gsp ag	ClpP mod
COc1ccc(C2Nc3ccc(Br)cc3C(c3ccccc3)N2CC(=O)O)cc1 (stereo not drawn)	-8	8	4%	-22%	-0.5	3%[15.4 µM]	-0.2%
O=C(NCC1CC1)Nc1cccs1	3	-3	45µM*	8%	?	-41%[inhibitor]	0.0%
COc1ccc(OC)c(NC(=O)CN2C(=O)COc3ccc(S(=O)(=O)N4CCCC4)cc32)c1	-3	-43	9%	-21%	0.5	-26%	-1.8%
O=C(O)/C=C/C(=O)Nc1nccs1	-15	-4	8%	4%	1.3	4%	.
CNC(=S)NNC(=O)c1cccn(Cc2ccccc2)c1=O	2	0	16%	0%	2.1	-4%	.
Cc1ccc(S(=O)(=O)N2CCOCC2)cc1NC(=O)COC(=O)CNC(=O)c1ccc(Cl)cc1Cl	15	-1	6%	2%	.	-55%[inhibitor]	-2.0%
CCOc1nc(NCCO)nc(Nc2ccc([N+](=O)[O-])cc2)n1	-4	-35	-10%	-1%	0.8	-48%[inhibitor]	-6.0%
CCCCn1c(SCC(=O)N2CCCC2)nc2c1c(=O)n(C)c(=O)n2C	-12	-25	5%	6%	-2.0	?	-0.7%
CCn1c(COc2ccc(C)cc2)nnc1SCC(=O)Nc1ccc(S(N)(=O)=O)cc1	12	2	9%	-3%	-0.7	-20%	?
COC(=O)c1ccc(-c2ccc(Cl)cc2)nc1C	-9	13	-3%	-8%	1.7	10%	1.2%
CN1C(N)=NC(=O)/C1=C/c1ccccc1F	-10	17	25%	3%	-2.3	3%[15.4 µM]	.
COc1ccc(C)cc1NC(=O)c1cc2c(CO)cnc(C)c2oc1=N	10	19	4%	1%	4.0	7%	0.9%
O=C(CCc1ccccc1)NNC(=S)NCc1ccc(Cl)cc1	10	10	17%	1%	5.3	4%	0.2%
COC(=O)c1c(-c2ccccc2Cl)noc1/C=C/N(C)C	6	-10	-19%	45%[activator]	?	-10%	-2.2%
CCOc1ccc(N(CC(=O)NCc2ccco2)S(C)(=O)=O)cc1	14	15	56µM*	11%	3.0	-20%	-1.0%
O=C(Cn1cnnn1)Nc1cccc(S(=O)(=O)N2CCCCC2)c1	23	6	-6%	.	0.0	3%[15.4 µM]	.
CCCC(=O)Nc1cc(C)c(NC(=O)Cc2ccccc2)cn1	.	-4	21%	.	-3.0	.	.
CCOC(=O)c1c(C)oc2c1c(C=NCc1ccccn1)c(O)c1ccccc12	8	-6	18µM*	-11%	?	9%	-1.6%
COc1ccc2c(c1)c(C(=O)CN1CCc3ccccc3C1)c(C)n2C	-4	24	4%	-7%	5.4	?	-3.7%
COc1ccccc1NC(=O)C(C)OC(=O)CCNS(=O)(=O)c1cccc(C(F)(F)F)c1 (stereo not drawn)	-3	4	.	-6%	.	18%	0.2%
CCCCC(CC)C(=O)Nc1ccc(C#N)cc1 (stereo not drawn)	27	-19	-3%	3%	2.6	-39%[inhibitor]	-0.4%
COc1ccc(NC(=O)CN(C)C(=O)CSCC(=O)Nc2ccc(C)cc2)cc1	3	13	.	8%	.	4%	-5.4%
CCN(CC)CCOC(=O)c1ccc(N/C=C(/C#N)c2nc(-c3cc4ccccc4oc3=O)cs2)cc1	-18	0	-29%	6%	2.4	?	-0.6%
O=C(N/N=C/c1ccccc1)c1sccc1OCc1ccc(F)cc1	17	-3	-5%	4%	1.6	10%	0.4%
CCCNC1CCS(=O)(=O)C1 (stereo not drawn)	4	-5	15%	10%	-2.5	?	-4.0%
O=c1c2cnn(-c3ccc(F)cc3)c2ncn1Cc1ccccc1	-16	12	4%	5%	-0.1	5%	-12%
C=CCNC(=O)C(=O)N/N=C/c1cccc(Br)c1	19	-15	22%	-2%	-0.8	-66%[inhibitor]	.
NC(=O)c1ccccc1OCC(=O)Nc1ccc(Cl)c(Cl)c1	26	-3	1%	-17%	-0.6	-23%	1.6%
CSc1ccccc1NC(=O)Nc1cccc2ccccc12	36	4	10%	8%	.	5%	-25%
COc1ccc(-c2csc(COC(=O)C(C)(C)C)n2)cc1	5	0	22%	-13%	-0.4	0%[15.4 µM]	-1.7%
CCN1CCN(c2ccc(N3CCN(S(=O)(=O)c4cccc([N+](=O)[O-])c4)CC3)nn2)CC1	3	.	.	.	.	2%	-2.3%
Nc1nc(NCCCN2CCOCC2)nc(Nc2cccc(F)c2)c1[N+](=O)[O-]	-4	.	15%	14%	-0.6	10%	.
O=C(CC1COc2ccccc2O1)Nc1ccccn1 (stereo not drawn)	-19	?	?	-5%	-2.4	0%	-0.8%
O=C(C1CCCCC1)N1CCN(C(=O)C2CCCCC2)CC1	4	0	3%	4%	5.3	8%	0.5%
Cc1cc(OC(=O)c2cccc(C(F)(F)F)c2)c([N+](=O)[O-])c(=O)[nH]1	3	7	7%	-4%	-2.7	22%	-2.6%
COc1cccc(C2=CC(=O)C[C@H](c3ccc4c(c3)OCO4)C2)c1OC	-11	-13	.	-9%	.	1%	-1.0%
CC(C)(C)C(=O)Cn1ncc(N2CCCC2)c(Br)c1=O	-6	5	6%	-14%	2.9	4%	0.3%
CC(/C=N/NC(=O)c1cc(-c2cccs2)[nH]n1)=C\c1ccccc1	-19	4	19%	-21%	6.5	?	-2.7%
CCn1c(SCc2c(Cl)cccc2Cl)nnc1-c1nn(-c2ccccc2)ccc1=O	-6	.	15%	-17%	0.8	-33%[inhibitor]	-1.9%
Cc1nnc2n1N=C(c1ccccc1)CS2	11	5	-11%	15%	3.7	-19%	0.6%
Cc1ccccc1NC(=O)Cc1nc(COC(=O)c2ncc(Cl)c(Cl)c2Cl)cs1	-3	.	.	?	.	-6%[15.4 µM]	.
CCOC(=O)C1=C(O)C(=O)N(Cc2ccccc2)C1	.	6	-1%&-30%	-4%	?	16%	-1.0%
Cc1nnc(NC(=O)Cc2ccc(OCc3c(C)noc3C)cc2)s1	7	-1	7%	4%	6.1	4%	-2.6%
Cc1ccccc1CNC(=O)c1ccccc1	-8	0	8%	-1%	-1.6	-19%	0.9%
CCOC(=O)CNC(=O)CSc1nc(NCc2ccccc2)nc(N(C)C)n1	-5	0	11%	-3%	1.9	-49%[inhibitor]	1.4%
O=C(N/N=C/c1oc(O)c2ccccc12)c1ccccc1O	-8	14	30%	2%	-1.6	8%	?
Cc1ccc(N/N=C2\COC(C)(C)CC2=O)cc1	3	7	-8%	17%	-0.5	?	1.3%
COc1ccc(CNC(=O)CN(C)Cc2ccc(SC)cc2)cc1	12	3	17%	1%	-1.8	-13%[15.4 µM]	.
CCCOc1ccc(N)cc1N	-25	7	45µM*	?	?	-42%	-4.8%
CN1/C(=C\C(=O)Nc2ccc(Cl)cc2)C(C)(C)c2ccccc21	2	-4	9%	-3%	1.0	-7%	.
COCCn1c(=NC(=O)CSCC(=O)N2CCOCC2)sc2ccccc21	4	4	24%	10%	.	8%[15.4 µM]	-0.9%
CC(=O)NC(CC(C)C)C(=O)NC(Cc1ccccc1)C(N)=O (stereo not drawn)	-3	11	15%	10%	-5.5	-80%[inhibitor]	0.8%
CC1Cn2c(COc3ccccc3)nnc2S1 (stereo not drawn)	16	9	39%[activator]	5%	0.0	?	-0.7%
O=C(CCN1CCOCC1)NNC(=O)Nc1cccc([N+](=O)[O-])c1	-12	0	5%	9%	-6.5	20%[15.4 µM]	-17%
C#CCOCCOCCOCCNc1nc(N2CCN(C(=O)[C@H](CCCCN)n3cc(CCC(=O)O)nn3)CC2)nc(N2CCN(C(=O)[C@H](Cc3ccc(O)cc3)n3cc(CCO)nn3)CC2)n1	-4	.	.	5%	.	.	0.6%
O=C(NC1=NCCS1)c1cccc2ccccc12	11	9	14%	-3%	3.9	27%[15.4 µM]	.
CC(C)NC(=S)Nc1cccc2cnccc12	-13	-16	1%	-1%	.	18%[15.4 µM]	0.9%
O=C(NNC(=S)Nc1ccc(C(=O)O)c(O)c1)c1ccncc1	11	.	.	0%	.	-41%[inhibitor]	.
O=C(C=Cc1ccco1)c1ccc([N+](=O)[O-])cc1	-1	.	.	0%	.	21%	.
Cc1c(NC(=O)CSc2ccccc2F)c(=O)n(-c2ccccc2)n1C	-5	14	21%	6%	1.9	-8%[15.4 µM]	.

Next results follow.
SMILES	TRPML1 inh	TRPV1 PAM	Sfp PPTase inh	gsp antag	Menin MLL FP FL	gsp ag	ClpP mod
Cc1ccn2c(=O)nc(SCC(=O)N3CCCCCC3)nc2c1	-6	-2	.	-21%	.	12%[15.4 µM]	-0.4%
O=[N+]([O-])c1cc(C(F)(F)F)c(Cl)cc1N1CCN(CCO)CC1	16	-14	7%	2%	2.4	-50%[inhibitor]	-3.1%
CC(=O)Nc1ccc(-c2nn[nH]n2)cc1	.	18	12%	12%	1.9	8%	0.1%
Cc1cc(C)cc(NC(=O)C(OC(=O)c2ccc(NC(=O)CC#N)cc2)c2ccccc2)c1 (stereo not drawn)	18	5	.	-14%	.	-2%[15.4 µM]	.
CCOc1cc(NC(=O)c2ccccc2C(=O)O)c(OCC)cc1NC(=O)c1ccccc1F	6	-1	-27%	?	-2.3	-61%[inhibitor]	.
O=C(c1ccc(S(=O)(=O)Nc2cccc(C(F)(F)F)c2)cc1)N1CCOCC1	-1	-1	15%	-3%	.	14%	0.6%
O=C(NCc1cn2ccccc2n1)c1ccccc1	-12	5	14%	15%	1.5	0%	-29%
COc1ccc(C(CNC(=O)C(C)Oc2ccc(Br)cc2)N2CCCCC2)cc1 (stereo not drawn)	9	-20	.	8%	.	26%	0.7%
COC(=O)CC1COc2ccccc2N1C(=O)c1ccc(Br)cc1 (stereo not drawn)	2	-34	5%	-4%	1.1	-8%[15.4 µM]	-30%
CCC(=O)c1cn(CC(=O)OC)c2ccccc12	11	-1	4%	-6%	-1.0	-2%	-1.7%
Cc1ccccc1NC(=O)CN1C(=O)CSc2ccc(S(=O)(=O)N3CCCCC3)cc21	-14	-8	2%	-7%	-4.3	-3%	-3.0%
O=C(CN1C(=O)C2CCCN2c2ncc(Cl)cc21)NCc1ccc2c(c1)OCO2 (stereo not drawn)	-5	?	5%	-2%	7.8	?	-3.1%
